Source: PubChem BioAssay (several laboratories)
CBX7 AlphaScr = inhibitors of human CBX7 binding to H3K27me3 peptide | 66,000 compounds, 1.1% hits | AlphaScreen His6-CBX7 / biotin-H3K27me3 peptide binding; hits give low values | normalised signal (fraction of DMSO) (test concentration not listed); in the data active = normalised signal below about 0.5;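 also: 100 nL library stock added to about 20 µL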
Target sequence (O95931 whole entry, looked up): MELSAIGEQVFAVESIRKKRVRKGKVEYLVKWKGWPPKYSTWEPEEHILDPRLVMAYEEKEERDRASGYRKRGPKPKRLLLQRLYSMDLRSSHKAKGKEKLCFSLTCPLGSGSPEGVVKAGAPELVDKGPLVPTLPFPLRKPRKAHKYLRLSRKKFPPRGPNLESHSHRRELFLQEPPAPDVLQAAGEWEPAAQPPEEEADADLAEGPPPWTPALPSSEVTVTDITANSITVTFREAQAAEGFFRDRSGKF
CBX7 AlphaScr z-score = also measured in CBX7 AlphaScr; calls as there; z-score; measured here: z-score of CBX7 signal; some inactives read as strong as hits; reference of the scale not given here;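 same signal on another scale; lower means less binding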
An asterisk follows results filed as active.

1: COc1ccccc1CN1CCN(Cc2ccccc2Cl)CC1
2: O=C(Nc1ccc(Cl)cc1)OCCn1nnnc1C1(N2CCOCC2)CCCCC1
3: O=C(CN1C(=O)CN=C(c2ccccc2Cl)c2cc(Cl)ccc21)N1CCN(c2ccccn2)CC1
4: COc1ccc(NC(=O)CN2C(=O)CN=C(c3ccccc3)c3cc(Cl)ccc32)c(OC)c1
5: CCOc1ccc2nc(N3CCC(C(=O)N4CCC5(CC4)OCCO5)CC3)sc2c1
6: COc1cccc(CNCCc2ccc3c(c2)OCO3)c1
7: O=C(CN1CCN(Cc2cccc(Cl)c2)C1=O)N1CCC2(CC1)OCCO2
8: COc1ccc(CCNC(=O)CN2C(=O)CN=C(c3ccccc3)c3ccccc32)cc1OC
9: CCOc1cc2c(cc1OCC)-n1cccc1C(c1ccccc1OC)NC2 (stereo unspecified)
10: O=c1c2ccccc2nc(-c2ccccc2F)n1-c1ccccc1

entry no.	1	2	3	4	5	6	7	8	9	10
CBX7 AlphaScr z-score	0.099	2.6	-0.17	-4.8	0.1	0.25	0.27	2.7	-9.1	-2.4
CBX7 AlphaScr	1	1.1	0.99	0.9	1	1	1	1.1	0.75	0.88

11: CC(=O)Nc1ccc(S(=O)(=O)N2CC3C[C@H](C2)c2cccc(=O)n2C3)cc1
12: CCOc1ccc(CN(CCc2ccc3c(c2)OCO3)Cc2ccc(F)cc2)cc1
13: CCN(C(=O)CN1C(=O)CN=C(c2ccccc2)c2ccccc21)c1cccc(C)c1
14: COc1ccccc1NC(=O)CN1C(=O)C(C)N=C(c2ccccc2)c2cc(Cl)ccc21 (stereo unspecified)
15: Cc1ccccc1-n1c(CSc2ncccn2)nc2ccccc2c1=O
16: COc1ccccc1-n1c(/C=C/c2c[nH]c3ccccc23)nc2ccccc2c1=O
17: CC1N=C(c2ccccc2)c2cc(Br)ccc2NC1=O (stereo unspecified)
18: O=C(CN1CC(c2ccccc2)CC1=O)Nc1ccc(F)cc1F (stereo unspecified)
19: CCN(CC)C(=O)c1ccc(NC(=O)COc2ccc(-c3nn(C)c(=O)c4ccccc34)cc2)cc1
20: O=c1c2ccccc2nc(/C=C/c2cccnc2)n1-c1ccc(F)c(Cl)c1

entry no.	11	12	13	14	15	16	17	18	19	20
CBX7 AlphaScr z-score	1.1	11	-0.44	-1.7	-0.32	0.32	-1.5	1.1	-1.9	1.6
CBX7 AlphaScr	1.1	1.2	0.98	0.88	0.97	1	0.95	1	0.93	1.1

Entries of single compounds from above. Values in the order: CBX7 AlphaScr z-score, CBX7 AlphaScr
`O=c1c2ccccc2nc(/C=C/c2cccnc2)n1-c1ccc(F)c(Cl)c1` is listed with 1.6, 1.1
`CCOc1ccc(CN(CCc2ccc3c(c2)OCO3)Cc2ccc(F)cc2)cc1` is listed with 11, 1.2

More compounds:
21: COc1ccc(-n2c(/C=C/c3ccc(Br)cc3)nc3ccccc3c2=O)cc1
22: O=c1c2ccccc2nc(-c2cccnc2)n1-c1ccc(Br)cc1
23: Cc1ccc(CN2C(=O)CN=C(c3ccccc3)c3ccccc32)cc1
24: O=c1c2cc(Cl)cc(Cl)c2nc(-c2cccnc2)n1-c1ccc(Cl)cc1
25: O=C1CN=C(c2ccccc2)c2ccccc2N1Cc1ccccc1F
26: CCC(C)n1[nH]c(=O)c2c1NC(=O)CSC2c1ccc2c(c1)OCO2 (stereo unspecified)
27: O=C(CNC(=O)c1ccc(Cl)cc1)Nc1ccc(Br)cc1C(=O)c1ccccc1
28: OCc1nnn(-c2nonc2-[n+]2nc3nonc3[n-]2)c1CO
29: O=c1cccc2n1CC1CC2CN(CC(O)COc2ccccc2)C1 (stereo unspecified)
30: Cc1cccc(-n2c(C)nc3ccc(I)cc3c2=O)c1

entry no.	21	22	23	24	25	26	27	28	29	30
CBX7 AlphaScr z-score	-0.61	-0.038	0.42	-0.13	0.36	-0.15	0.75	-0.2	0.64	-0.4
CBX7 AlphaScr	0.94	1	1	0.99	1	0.99	1.1	0.99	1	0.9

31: Cc1ccccc1-n1c(/C=C/c2ccc(Cl)cc2)nc2ccccc2c1=O
32: CCC(C)n1[nH]c(=O)c2c1NC(=O)CSC2c1ccc(Br)cc1 (stereo unspecified)
33: COc1cc(NC(=O)CN2C(=O)C(C)N=C(c3ccccc3F)c3cc(Cl)ccc32)cc(OC)c1 (stereo unspecified)
34: COCCNC(=O)CN1C(=O)CN=C(c2ccccc2)c2cc(Cl)ccc21
35: Cc1ccc2c(c1)[C@@H]1CN(C)CC[C@@H]1N2C(=O)C1CC1
36: CCCC1=Nc2cc(C(=O)NC3CCC(C)CC3)ccc2Sc2ccccc21 (stereo unspecified)
37: O=C(NC1CCCCC1)N1CCN2CCCC2C1 (stereo unspecified)
38: O=C(CN1CCN(Cc2ccc(Cl)cc2)C1=O)N1CCC2(CC1)OCCO2
39: O=C(Nc1ccc(F)cc1)N1CC2C[C@H](C1)c1cccc(=O)n1C2
40: Cc1oc(-c2ccccc2)nc1CN1C(=O)C(C)N=C(c2ccccc2F)c2cc(Cl)ccc21 (stereo unspecified)

entry no.	31	32	33	34	35	36	37	38	39	40
CBX7 AlphaScr z-score	0.065	1.4	-3.3	0.37	-0.41	-1.9	2.5	-0.32	-0.91	-1.6
CBX7 AlphaScr	1	1.1	0.76	1	0.9	0.87	1.1	0.98	0.98	0.9

41: Cc1ccc(-n2c(/C=C/c3ccccc3)nc3ccccc3c2=O)cc1C
42: COCCCn1c(-c2ccc(OC)cc2)cc(C(=O)NC2CCCC2)c1C
43: O=C(Nc1ccc(Cl)cc1C(=O)c1ccccc1Cl)c1ccc(N2C(=O)CCC2=O)cc1
44: CCOC(=O)C1(c2ccccc2)CCN(CC(=O)Nc2ccc(OCc3ccccc3)cc2)CC1
45: Cc1ccc(F)cc1-n1c(/C=C\c2ccc(F)cc2)nc2ccccc2c1=O
46: COC(C(=O)Nc1ccc(Br)cc1C(=O)c1ccccc1Cl)c1ccccc1 (stereo unspecified)
47: CCOC(=O)C1(c2ccccc2)CCN(Cc2ccc(O)c(C(=O)OC)c2)CC1
48: CCc1ccccc1NC(=O)C(CC)N1C(=O)C(C)N=C(c2ccccc2)c2ccccc21 (stereo unspecified)
49: CCOC(=O)C1(c2ccccc2)CCN(CCC(=O)Nc2ccc(OCc3ccccc3)cc2)CC1
50: O=C(CN1C(=O)CN=C(c2ccccc2Cl)c2cc(Cl)ccc21)NCCN1CCCC1

entry no.	41	42	43	44	45	46	47	48	49	50
CBX7 AlphaScr z-score	-0.75	-1.7	-0.61	-4	0.73	-4.1	-1.9	3.5	-0.95	-0.45
CBX7 AlphaScr	0.93	0.95	0.86	0.85	1	0.85	0.88	1.5	0.93	0.97

51: COc1cc2c(cc1OC)C(C(=O)Nc1ccc(F)cc1)C1CCCCN1C2=O (stereo unspecified)
52: COc1ccc(NC(=O)CN2C(=O)CN=C(c3ccccc3)c3ccccc32)c(OC)c1
53: Cc1nc(N2CCN(C)CC2)c2c(C)c(C)sc2n1
54: Cc1ccc2c(c1)C1CN(C)CCC1N2C(=O)Cn1nnc(-c2ccccc2Cl)n1 (stereo unspecified)
55: O=C(CN1C(=O)CN=C(c2ccccc2)c2ccccc21)NC1CCCCC1
56: O=c1c2ccccc2nc(/C=C\c2ccc(F)cc2)n1-c1cccc(Cl)c1
57: CCOC(=O)c1c(NC(=O)c2cccc3ccccc23)sc2c1CCCC2
58: CCOc1cccc(C2NCc3ccccc3-n3cccc32)c1O (stereo unspecified)
59: COc1ccc(/C=C/c2nc3ccccc3c(=O)n2-c2cc(Cl)ccc2OC)cc1
60: COc1ccc(CN2CCN(Cc3ccc(C)cc3)CC2)cc1Br

entry no.	51	52	53	54	55	56	57	58	59	60
CBX7 AlphaScr z-score	0.088	-1.3	3.3	-1.2	0.24	1.7	4.9	-3.5	3	-0.7
CBX7 AlphaScr	1	0.95	1.3	0.92	1	1.1	1.6	0.78	1.1	0.89

61: O=C(CCc1nc(-c2ccccc2F)no1)N1CCC2(CC1)OCCO2
62: CC1N=C(c2ccccc2)c2cc(Cl)ccc2N(CC(=O)Nc2ccc(F)c(Cl)c2)C1=O (stereo unspecified)
63: O=C1CSC(c2ccc(OCc3ccccc3)cc2)c2c(n(C3CCCCC3)[nH]c2=O)N1 (stereo unspecified)
64: CC(=O)c1c(C)n(Cc2ccccc2Cl)c2ccc(O)cc12
65: O=C1CNC(c2ccccc2)c2cc(Cl)ccc2N1 (stereo unspecified)
66: CCc1ccccc1NC(=O)CN1C(=O)C(C)N=C(c2ccccc2)c2cc(Cl)ccc21 (stereo unspecified)
67: O=C(CN1C(=O)CN=C(c2ccccc2)c2ccccc21)Nc1ccc(Br)cc1F
68: O=C(CCN1CCCCC1)Nc1ccc(Cl)cc1C(=O)c1ccccc1
69: Cc1cccc(NC(=O)CN2C(=O)CN=C(c3ccccc3)c3ccccc32)c1C
70: Cc1nc2ccccc2c(=O)n1-c1ccc2c(c1)OC(F)(F)O2

entry no.	61	62	63	64	65	66	67	68	69	70
CBX7 AlphaScr z-score	2.1	-3.9	0.046	0.96	2.3	-2.4	0.69	-1.6	-1.4	-0.02
CBX7 AlphaScr	1.1	0.86	1	1.1	1.1	0.83	1	0.74	0.94	1

Grouped by structure, those above with an aryl methoxy group.
1: COc1ccccc1CN1CCN(Cc2ccccc2Cl)CC1
4: COc1ccc(NC(=O)CN2C(=O)CN=C(c3ccccc3)c3cc(Cl)ccc32)c(OC)c1
6: COc1cccc(CNCCc2ccc3c(c2)OCO3)c1
8: COc1ccc(CCNC(=O)CN2C(=O)CN=C(c3ccccc3)c3ccccc32)cc1OC
9: CCOc1cc2c(cc1OCC)-n1cccc1C(c1ccccc1OC)NC2 (stereo unspecified)
14: COc1ccccc1NC(=O)CN1C(=O)C(C)N=C(c2ccccc2)c2cc(Cl)ccc21 (stereo unspecified)
16: COc1ccccc1-n1c(/C=C/c2c[nH]c3ccccc23)nc2ccccc2c1=O
21: COc1ccc(-n2c(/C=C/c3ccc(Br)cc3)nc3ccccc3c2=O)cc1
33: COc1cc(NC(=O)CN2C(=O)C(C)N=C(c3ccccc3F)c3cc(Cl)ccc32)cc(OC)c1 (stereo unspecified)
42: COCCCn1c(-c2ccc(OC)cc2)cc(C(=O)NC2CCCC2)c1C
51: COc1cc2c(cc1OC)C(C(=O)Nc1ccc(F)cc1)C1CCCCN1C2=O (stereo unspecified)
52: COc1ccc(NC(=O)CN2C(=O)CN=C(c3ccccc3)c3ccccc32)c(OC)c1

entry no.	1	4	6	8	9	14	16	21	33	42	51	52
CBX7 AlphaScr z-score	0.099	-4.8	0.25	2.7	-9.1	-1.7	0.32	-0.61	-3.3	-1.7	0.088	-1.3
CBX7 AlphaScr	1	0.9	1	1.1	0.75	0.88	1	0.94	0.76	0.95	1	0.95

59: COc1ccc(/C=C/c2nc3ccccc3c(=O)n2-c2cc(Cl)ccc2OC)cc1
60: COc1ccc(CN2CCN(Cc3ccc(C)cc3)CC2)cc1Br

entry no.	59	60
CBX7 AlphaScr z-score	3	-0.7
CBX7 AlphaScr	1.1	0.89

(further entries)
71: CCOC(=O)C1(c2ccccc2)CCN(CC(=O)Nc2ccc(F)cc2)CC1
72: COc1ccc2nc(N3CCC(C(=O)N4CCC5(CC4)OCCO5)CC3)sc2c1
73: CC(=O)N1CCC2(CC1)CC(=O)c1cc(OCC(=O)N3CCN(C)CC3)ccc1O2
74: Cc1ccccc1-n1c(-c2cccnc2)nc2ccccc2c1=O
75: CC1(C)CC(CCNCc2ccc3c(c2)OCO3)(Cc2ccccc2)CCO1 (stereo unspecified)
76: COc1cccc(OC)c1C1=NCC(=O)Nc2c1oc1ccc(Br)cc21
77: COc1ccc(CN2CCN(Cc3ccccc3Cl)CC2)cc1
78: O=C1CSC(c2ccc(Cl)cc2Cl)c2c(n(C3CCCC3)[nH]c2=O)N1 (stereo unspecified)
79: C#CC1(O)CCC2C3CCC4=CC(=O)CCC4(C)C3CCC21C (stereo unspecified)
80: CCC(C)n1[nH]c(=O)c2c1NC(=O)CSC2c1ccc(OC)c(OC)c1 (stereo unspecified)

entry no.	71	72	73	74	75	76	77	78	79	80
CBX7 AlphaScr z-score	0.56	1.4	0.87	4.2	0.093	-9	-0.91	0.13	1.8	0.51
CBX7 AlphaScr	1.1	1.1	1	1.2	1	0.52	0.96	1	1.1	1

81: CCOC(=O)c1c(CN2CCC(C(=O)OCC)(c3ccccc3)CC2)n(C2CCCCC2)c2cc(Br)c(O)cc12
82: Cc1cccnc1-n1c(CN2C(=O)c3ccccc3C2=O)nc2ccccc2c1=O
83: CN(C)c1ccc(NC(=O)CN2C(=O)CN=C(c3ccccc3)c3cc(Br)ccc32)cc1
84: COc1cccc(NC(=O)CN2C(=O)CN=C(c3ccccc3)c3cc(Br)ccc32)c1
85: CCOc1cc2c(cc1OCC)-n1cccc1C(c1ccc(C(C)C)cc1)NC2 (stereo unspecified)
86: Cc1ccc(-n2c(/C=C/c3cccc(F)c3)nc3ccccc3c2=O)cc1
87: CC1N=C(c2ccccc2)c2ccccc2N(Cc2ccccc2Cl)C1=O (stereo unspecified)
88: CCC(C)n1[nH]c(=O)c2c1NC(=O)CSC2c1ccc(Cl)cc1 (stereo unspecified)

entry no.	81	82	83	84	85	86	87	88
CBX7 AlphaScr z-score	-7.1	0.9	-6.9	0.69	-4	0.086	0.24	-1.5
CBX7 AlphaScr	0.73	1	0.57	1	0.82	1	1	0.93

A portion of the library. The share of hits here may be higher or lower than overall.
